Lassa entry inh – Lassa virus entry inhibition. Lassa virus pseudotype entry inhibition, cell reporter; control for the full effect not named in the record. Potency, µM (doses to about 37.9 µM), for the others: top-dose activity change, negative = inhibition, usual class: inhibitors. 1.2% of 300,000 active; active means well fitted inhibition curve with a large enough effect; inconclusive means small, poorly fitted or top-dose-only effect, or effect the other way; inactive means flat fitted curve, though single readings scatter; tested in HEK293 cells; also: % is scaled to controls: 0 for no effect and ±100 for the full control effect; nearly all actives have a fitted effect of over 50% in size; luciferase read-out
StopGo reporter – FMDV 2A StopGo reporter, luciferase signal; AID 1159524; Potency, µM (doses to about 57.9 µM), for the others: at the top dose signal change, negative = less light; human cells with a luciferase reporter of 2A StopGo recoding; control for the full effect not named in the record; 1.2% of 410,000 active; active = well fitted falling curve with a large enough effect; inconclusive = small, poorly fitted or top-dose-only effect; inactive = no such curve, though single readings can be large or run the other way; tested in HEK293T cells; also: % is scaled to controls: 0 for no effect and ±100 for the full control effect; nearly all actives have a fitted effect of over 45% in size; luciferase light after 4 h
RE007 growth inh – less growth of the S. pombe RE007 Vpr strain; S. pombe RE007 Vpr strain, BacTiter-Glo ATP luminescence, 24 h; control for the full effect not named in the record; Potency, µM (highest dose often 92.2 µM), for the others: top-dose activity change, negative = less growth; 0.21% of 360,000 active; active = well fitted falling curve with a large enough effect; inconclusive = small, poorly fitted or top-dose-only effect; inactive = no such curve, though single readings can be large or run the other way;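 also: % is scaled to controls: 0 for no effect and ±100 for the full control effect; nearly all actives have a fitted effect of over 50% in size; the assay follows cell death caused by Vpr and the record does not say whether a fall means rescue or toxicity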
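Fission yeast strain RE007, carrying one chromosomally integrated HIV-1 vpr copy, was seeded at OD 0.01 in PMG+AL medium with 23 nL pinned compound. After 24 h at 30 °C and 99% humidity, viability was read by BacTiter-Glo luminescence.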
SARS PLP yeast – inhibitors of SARS-CoV papain-like protease in yeast | S. cerevisiae expressing SARS-CoV PLpro, growth rescue; control for the full effect not named in the record | Potency, µM (series often up to 32.9 µM), for the others: at the top dose activity, positive = growth rescue | 0.19% of 330,000 active | AID 485353; active means well fitted rising curve with a large enough effect; inconclusive means small, poorly fitted or top-dose-only effect; inactive means no such curve, though single readings can be large or run the other way; also: 0% is about no effect; nearly all actives have a fitted effect of over 55% in size; growth read by luminescence after 48 h
NS1 function inh – inhibitors of influenza NS1 protein function. AID 2326. 0.4% of 270,000 active. Potency, µM (series often up to 46.1 µM), for the others: at the highest dose activity, positive = more growth. S. cerevisiae slowed by influenza A NS1, growth recovery by OD600; active means well fitted rising curve with a large enough effect; inconclusive means small, poorly fitted or top-dose-only effect; inactive means no such curve, though single readings can be large or run the other way; also: nearly all actives have a fitted effect of over 50% in size
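A cell-based growth assay was used: compounds that relieve NS1-induced slow growth of budding yeast raise OD600. Assay medium was yeast nitrogen base with ammonium sulphate and -URA supplement, pH 6.0, with 2% galactose.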
MARV entry inh – blocks Marburg virus binding to or entry into cells; Marburg virus pseudotyped entry inhibition, cell reporter; control for the full effect not named in the record; about a third of the inactives were read at about 46 µM; Potency, µM (top dose mostly 37.8 µM), inactives show top-dose activity change, negative = inhibition, actives largely listed as inhibitors; 1.8% of 300,000 active; AID 540276; active = well fitted inhibition curve with a large enough effect; inconclusive = small, poorly fitted or top-dose-only effect, or effect the other way; inactive = flat fitted curve, though single readings scatter; tested in HEK293 cells; about a fifth of its hits are not listed in these tables; also: % is scaled to controls: 0 for no effect and ±100 for the full control effect; luciferase read-out
Cruzain inh noDet – cruzain (T. cruzi) inhibition without detergent; P25779; purified cruzain, Z-FR-AMC fluorescence, no detergent; Potency, µM, without a hit: max response, negative = inhibition, actives largely listed as inhibitors; 2.3% of 200,000 active; AID 1476;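 also: plate controls were enzyme without inhibitor for no effect and buffer without enzyme for full effect; nearly all actives have a fitted effect of over 40% in size; top concentration of the series not given in the record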
Target sequence (P25779 123-467 limits assumed): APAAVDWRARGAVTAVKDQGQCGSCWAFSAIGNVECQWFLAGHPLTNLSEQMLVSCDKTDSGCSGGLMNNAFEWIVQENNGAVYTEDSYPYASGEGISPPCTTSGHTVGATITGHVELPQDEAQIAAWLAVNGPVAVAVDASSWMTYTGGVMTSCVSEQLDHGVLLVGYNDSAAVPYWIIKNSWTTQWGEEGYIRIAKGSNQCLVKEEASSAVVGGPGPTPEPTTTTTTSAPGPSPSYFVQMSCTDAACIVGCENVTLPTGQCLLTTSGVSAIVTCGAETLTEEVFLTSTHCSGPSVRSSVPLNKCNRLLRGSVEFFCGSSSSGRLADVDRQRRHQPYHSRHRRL
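Purified cruzain at 1.5 nM, pre-incubated 15 min with compound at room temperature in 100 mM sodium acetate pH 5.5, 5 mM DTT, 0.00005% Triton X-100. Reaction started with 2 uM Z-FR-AMC; AMC fluorescence increase over 60 s gives rate.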
Cruzain inh Det – blocks cruzain activity in presence of Triton detergent | P25779 | Potency, µM, for inactives: max response, negative = inhibition, hits mostly inhibitors | AID 1478 | purified cruzain, Z-FR-AMC fluorescence, 0.01% Triton | 0.43% of 200,000 active;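 also: plate controls were neutral wells for no effect and buffer without enzyme for full effect; nearly all actives have a fitted effect of over 40% in size; top concentration of the series not given in the record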
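Z-FR-AMC hydrolysis (2 uM substrate) by cruzain (1.5 nM) monitored kinetically at ex 360/em 450 nm after 15 min room-temperature compound exposure; 0.01% Triton X-100, pH 5.5, 5 mM DTT.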
* marks the source's active call; other numbers are inactive results; ? = inconclusive; nt = not tested or not shown; [ ] = another dose, or the depositor's remark. Unless noted, calls follow the shape of the dose curve; as a rule, active = well fitted curve in the direction sought with a large enough effect; inconclusive = small, poorly fitted or top-dose-only effect, or another doubt; inactive = no such curve, though single readings can be large; an effect the other way counts as inactive or inconclusive. Potency is read from the fitted curve at half-maximal effect.

SMILES	Lassa entry inh	StopGo reporter	RE007 growth inh	SARS PLP yeast	NS1 function inh	MARV entry inh	Cruzain inh noDet	Cruzain inh Det
COC(=O)c1ccc(C(=O)OC)nc1	13%	-5%	13%	2%	-4%	2%	1%	3.3%
Cc1[nH]n(-c2ccccc2)c(=O)c1N=Nc1ccccc1C(=O)N1CCOCC1	?	-16%	-16%	7%	0%	?	?	-13%
O=C(CS(=O)(=O)c1cn(Cc2ccc(Cl)cc2)c2ccccc12)N1CCCCC1	nt	-13%	12%	6%	5%	nt	-14%	-0.8%
O=C(c1cc([N+](=O)[O-])ccc1Cl)N1CCN(c2ccccn2)CC1	24%	0%	-4%	0%	-1%	-58%[46.1 µM]	nt	nt
Cc1ccc(-c2nnc(-c3cccs3)o2)cc1	?	4%	20µM*	0%	-31%	-27%	nt	nt
CSc1ccc(Cl)c(C(=O)Nc2cc(S(=O)(=O)N3CCOCC3)ccc2N2CCOCC2)c1	?	10%	-9%	1%	nt	-3%	nt	nt
CC(=O)Nc1ccc(S(=O)(=O)NCC(=O)NCCCc2ccccc2)cc1	-15%[46.1 µM]	-9%	7%	12%	9%	-5%[46.1 µM]	nt	nt
CCC(=O)c1cn(CC(=O)NCC2CCCO2)c2ccccc12 (stereo unspecified)	28%	33%[activator]	-10%	0%	2%	?	-12%	1.2%
CCOc1ccccc1NC(=O)CCS(=O)(=O)c1ccc2c(c1)CC(C)N2C(C)=O (stereo unspecified)	nt	-11%	-3%	2%	-6%	nt	nt	nt
COc1ccc2nc(SCCC(=O)O)cc(C)c2c1	-3%	-2%	-5%	-1%	-5%	1%	nt	nt
CCOc1ccccc1NC(=O)C1CCN(S(=O)(=O)c2c(C)nn(C)c2C)CC1	nt	-20%	0%	6%	-10%	nt	3%	1.0%
Cc1nc2c(C)cccc2c2c1COC2	7%	-13%	2%	-6%	-2%	-2%	nt	nt
CC(C)n1c(=O)c(C=Nc2cccc([N+](=O)[O-])c2)c(O)n(CCc2ccccc2)c1=O	0%	-23%	18%	0%	26%	?	-25%	-7.9%
Cc1nc(SCCOc2ccc(F)cc2)c2ccccc2n1	4%	8%	-6%	0%	nt	9%	nt	nt
Cc1cc2c(Nc3ccc(O)cc3)ncnc2s1	-3%[46.1 µM]	14%	8%	4%	33%	-2%[46.1 µM]	nt	nt
N#Cc1ccc(CSc2nnc(-c3ccccn3)n2-c2ccc(Cl)cc2)cc1	?	-29%	6%	-1%	-36%	?	10%	-3.1%
CN(CC(=O)NC(=O)NC(C)(C)C)CC(=O)Nc1ccccc1Cl	nt	-15%	6%	0%	1%	nt	nt	nt
CC(C)C(C)NC(=O)COc1ncnc2sccc12 (stereo unspecified)	-3%[46.1 µM]	-5%	-6%	1%	nt	4%[46.1 µM]	nt	nt
O=C(CCc1ccccc1)NNC(=O)c1ccccc1C(=O)O	4.6µM*	-7%	-11%	14%	8%	-2%	6%	1.6%
COc1ccccc1N1CCN(Cc2cnc(-c3ccccc3)[nH]2)CC1	15%	-19%	-14%	0%	-1%	-28%[46.1 µM]	nt	nt
N/C(Cc1ccccc1Sc1ccccc1)=N\O	-16%	-17%	2%	-9%	-6%	14%	4%	1.1%
CCCCOc1ccc(-c2nnn(CCC(=O)N3CCOCC3)n2)cc1	-1%	nt	11%	-2%	-72%	3%	?	-2.4%
CCOc1ccc(NC(=O)CN2C(=O)COc3ccc(S(=O)(=O)N4CCCC4)cc32)cc1	nt	-2%	0%	-2%	7%	nt	nt	nt
COc1ccc(CN(CC(O)COc2cccc3[nH]cc(C)c23)C(C)(C)C)cc1 (stereo unspecified)	nt	-29%	-10%	0%	0%	1%	nt	nt
CCN(CC)CCn1c(NCc2ccc3c(c2)OCO3)nc2ccccc21	nt	-22%	2%	1%	-1%	nt	nt	nt
CN1CCN(C(=O)c2cc(S(=O)(=O)Nc3ccccc3F)c(Cl)cc2Cl)CC1	22%	17%	9%	-1%	2%	-19%[46.1 µM]	nt	nt
CCCCn1c(=N)n(CC(=O)C(C)(C)C)c2ccccc21	-15%	0%	-3%	4%	-53%	-7%	0%	-3.7%
COc1ccc(S(=O)(=O)N2CCN(c3ccc(F)cc3)CC2)cc1-c1noc(C)n1	-4%[46.1 µM]	-3%	nt	nt	nt	-12%[46.1 µM]	9%	-1.2%
Cc1ccc2cc(C#N)c(SCC(=O)N3CCCc4ccccc43)nc2c1	15%	-2%	-28%	6%	?	?	9%	-4.4%
O=C(c1cc(COc2ccc(F)cc2Cl)on1)N(CCO)Cc1cccs1	nt	5%	1%	-3%	-25%	nt	nt	nt
COc1ccc(/C=C/C(=O)Nc2ccccc2C(F)(F)F)cc1	?	55%[activator]	22%	-5%	-2%	?	10%	0.8%
COc1cc(CNC2CCCC2)cc(Cl)c1OCc1ccccc1F	?	nt	-3%	-25%	-15%	?	3%	2.2%
CCn1c(CN2CCN(C(c3ccccc3)c3ccccc3)CC2)nc2c1c(=O)n(C)c(=O)n2C	?	-10%	5%	2%	4%	?	nt	nt
CCOc1ccccc1OCCOCCOc1ccccc1[N+](=O)[O-]	-15%	-24%	-13%	19%	1%	-25%	-1%	-4.6%
COc1ccc(C(=O)NCC(=O)OCC(=O)Nc2cccc(S(=O)(=O)N3CCCC3)c2)cc1	nt	-11%	28%	0%	-8%	nt	nt	nt
Cc1c(/C=C(\C#N)C(=O)Nc2cccc(Cl)c2)c2ccccc2n1Cc1ccccc1Cl	1%[46.1 µM]	-8%	nt	nt	nt	nt	1.6µM*	-0.9%
CCC(=O)N1CCc2cc(S(=O)(=O)NCCC(=O)NCc3ccccc3OC)ccc21	-12%[46.1 µM]	-10%	-1%	-3%	-3%	1%[46.1 µM]	nt	nt
C=CCN(CC=C)C(=O)CN1C(=O)NC(Cc2c[nH]c3ccccc23)C1=O (stereo unspecified)	-1%	6%	-3%	1%	-1%	19%[46.1 µM]	nt	nt
CC(=O)c1ccc(N2CCN(S(=O)(=O)c3cccc4nsnc34)CC2)cc1	2%	42%[activator]	2%	-1%	1%	13%[46.1 µM]	nt	nt
O=C(COC(=O)CCC(=O)c1ccc(F)cc1)Nc1ccc(N2CCOCC2)cc1	8%	-15%	34%	5%	1%	6%	-2%	-6.9%
NC(=O)Cn1c(O)c(N=NC(=O)CNC(=O)/C=C/c2ccccc2)c2ccccc21	nt	-4%	-6%	2%	7%	nt	nt	nt
O=C(CN1CCCC1)N1c2ccccc2Sc2ccc(Cl)cc21	nt	-11%	5%	-4%	6%	nt	nt	nt
Cn1nccc1NC(=O)CC1(CC(=O)O)CCCCC1	nt	-14%	-10%	1%	2%	nt	nt	nt
CCCNC(=O)c1c(N)n(Cc2ccco2)c2nc3ccccc3nc12	6%	?	-18%	-16%	22%	?	?	-17%
CCn1c(CNC(=O)c2ccco2)nnc1SCCOc1ccccc1	-24%[46.1 µM]	5%	-17%	2%	-1%	3%[46.1 µM]	nt	nt
Cc1ccc(NC(=O)N/C=C/c2ccco2)c(C)c1	?	18%	15%	-6%	8%	-16%	-7%	-3.9%
COc1ccc2oc(C(=O)NC(C)c3ccccn3)c(C)c2c1 (stereo unspecified)	-3%	8%	?	4%	nt	-17%	nt	nt
COC(=O)CNC(c1ccccc1)c1cc(Br)ccc1NC(=O)CNC(=O)OCc1ccccc1 (stereo unspecified)	?	-23%	1%	-27%	-21%	?	-3%	-8.1%
O=C(Nc1ccc(Br)cc1)c1ccc(N2C(=O)C3CCCCC3C2=O)cc1 (stereo unspecified)	-27%	-26%	-16%	7%	0%	-3%	nt	nt
CCC(CC)c1nnc(NC(=O)c2c(-c3ccccc3)noc2C)s1	nt	?	2%	2%	-51%	nt	-9%	-4.3%
COc1ccc(CN(C(=O)c2ccco2)c2ccc(C)c(C)c2)cc1	?	-11%	19%	-1%	-37%	?	nt	nt
COc1cccc(-n2c(COc3ccc(C)cc3)nnc2SCC(N)=O)c1	7%	nt	-15%	?	-2%	7%	3%	3.0%
CCCN(CC(=O)Nc1ccccc1C)C(=O)c1cnc(C)cn1	25%	-24%	-15%	nt	nt	?	nt	nt
NC(=S)N/N=C/c1c(O)c(Br)cc2oc3c(c12)CCCC3	?	?	8%	1%	3%	?	nt	nt
O=C(Nc1nc(-c2ccccc2)cs1)Nc1ccc(F)cc1F	?	-8%	-25%	-13%	nt	-27%	nt	nt
Cc1ccc(Cl)cc1N1CCN(C(=O)c2ccc3c(c2)N(Cc2ccc(F)cc2)CCS3)CC1	2%[46.1 µM]	-22%	nt	nt	nt	2%[46.1 µM]	?	-0.8%
COc1ccc(C2NC(=O)NC(O)(C(F)(F)F)C2C(=O)c2ccc(C)cc2)cc1 (stereo unspecified)	2%	nt	14%	-8%	4%	-6%	-1%	1.0%
COc1cc(Nc2nc3c(S(=O)(=O)c4ccccc4)nnn3c3ccc(Cl)cc23)cc(OC)c1	nt	-1%	nt	nt	nt	14%[46.1 µM]	1%	0.5%
COc1ccccc1-c1nnc(SCC(=O)Nc2ccc(S(N)(=O)=O)cc2)n1C	10%	-3%	11%	-1%	-20%	3%	16%	3.1%
CCN(CC)P(=O)(Nc1ccc([N+](=O)[O-])cc1)c1c(C)nn(CCC#N)c1NC(=O)c1ccc(Cl)cc1Cl (stereo unspecified)	-28%	-30%	5%	3%	-8%	?	nt	nt
(list continues)
SMILES	Lassa entry inh	StopGo reporter	RE007 growth inh	SARS PLP yeast	NS1 function inh	MARV entry inh	Cruzain inh noDet	Cruzain inh Det
Cc1cc(C)cc(OCc2ccc(C(=O)Nc3ccccc3F)o2)c1	-20%[46.1 µM]	3%	nt	nt	nt	2%[46.1 µM]	8%	-6.9%
COc1ccccc1Oc1nc2c(c(=O)n(C)c(=O)n2C)n1Cc1cccc(Br)c1	?	?	nt	nt	nt	-22%[46.1 µM]	?	-1.6%
Cc1ccccc1N=Nc1c(N)n[nH]c1N	nt	40%[activator]	4%	5%	24%	nt	nt	nt
Cc1ccc(-n2ncc3c(=O)n(Cc4cccnc4)cnc32)cc1	0%	-18%	-18%	-3%	-12%	-5%	-3%	1.5%
COc1cccc(OCc2cc(C(=O)NCCN3CCCCC3CO)no2)c1 (stereo unspecified)	3%	-15%	0%	-2%	14%	31%	nt	nt
O=S(=O)(c1cc(Br)c(Cl)s1)N1CCCC1	nt	-12%	7%	0%	3%	nt	nt	nt
O=C(CNC(=O)c1ccccc1F)Nc1ccncc1	25%	6%	3%	0%	nt	2%[46.1 µM]	nt	nt

High-throughput results from PubChem BioAssay.
